KCNQ2 block: KCNQ2 potassium channel inhibitors, primary screen, cell-based, CHO-K1, FluxOR thallium flux, B-score (AID 2156); Potassium voltage-gated channel subfamily KQT member 2 (Rattus norvegicus), O88943; 20 min; active compounds read low; only compounds with negative scores are shown here; some inactives read as strong as hits; B-score at 10 µM; 310,000 tested, 1.1% active;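 active = fluorescence ratio B-score at most minus 3 library SDs, with starting brightness B-score within 2 library SDs, cut at about -5.5 in these data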
Target sequence (O88943 whole entry, looked up): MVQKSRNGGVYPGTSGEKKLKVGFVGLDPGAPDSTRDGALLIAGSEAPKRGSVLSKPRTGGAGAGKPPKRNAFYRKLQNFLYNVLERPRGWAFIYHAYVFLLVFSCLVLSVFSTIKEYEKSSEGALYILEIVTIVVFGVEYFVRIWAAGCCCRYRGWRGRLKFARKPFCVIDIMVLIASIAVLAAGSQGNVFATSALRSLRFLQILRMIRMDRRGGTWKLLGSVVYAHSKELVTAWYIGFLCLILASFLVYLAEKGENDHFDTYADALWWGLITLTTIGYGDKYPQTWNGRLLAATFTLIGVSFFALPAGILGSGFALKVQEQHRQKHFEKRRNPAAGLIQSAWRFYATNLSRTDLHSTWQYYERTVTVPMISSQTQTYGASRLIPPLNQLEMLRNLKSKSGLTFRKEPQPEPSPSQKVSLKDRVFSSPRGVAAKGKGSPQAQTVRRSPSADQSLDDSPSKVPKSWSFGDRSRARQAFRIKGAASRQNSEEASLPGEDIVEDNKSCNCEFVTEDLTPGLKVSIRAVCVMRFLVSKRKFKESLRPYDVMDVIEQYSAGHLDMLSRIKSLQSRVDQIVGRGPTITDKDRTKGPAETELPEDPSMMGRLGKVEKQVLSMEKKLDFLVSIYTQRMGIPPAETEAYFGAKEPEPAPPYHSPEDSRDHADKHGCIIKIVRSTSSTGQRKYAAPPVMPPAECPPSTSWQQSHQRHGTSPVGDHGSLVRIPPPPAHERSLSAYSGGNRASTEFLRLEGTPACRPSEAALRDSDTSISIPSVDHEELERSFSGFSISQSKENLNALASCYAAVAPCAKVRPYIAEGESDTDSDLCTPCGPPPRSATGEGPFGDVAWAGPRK
KCNQ2 block baseline: also measured in KCNQ2 block; calls as there; B-score; measured here: initial fluorescence intensity artifact check;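 brightness before thallium and not channel activity; 0 = typical well and far values either way flag optical interference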
The depositor's hits bear a star; i = inactive.

Preview:
KCNQ2 block baseline	KCNQ2 block	compound
-1.2	i	Cc1ccc([N+](=O)[O-])cc1NC(=S)NC(=O)CC(C)(C)C
0.17	i	C/C(=N\NC(N)=O)c1cccc(Cl)c1
1.8	i	O=C1/C(=C/c2cccs2)SC(=S)N1CC(=O)N1CCCCC1CCO (stereo unspecified)
-0.54	i	O=C(Cn1cc([N+](=O)[O-])cn1)N1CCc2ccccc2C1

Main list, from the first entry:
KCNQ2 block baseline	KCNQ2 block	compound
-1.2	i	Cc1ccc([N+](=O)[O-])cc1NC(=S)NC(=O)CC(C)(C)C
0.17	i	C/C(=N\NC(N)=O)c1cccc(Cl)c1
1.8	i	O=C1/C(=C/c2cccs2)SC(=S)N1CC(=O)N1CCCCC1CCO (stereo unspecified)
-0.54	i	O=C(Cn1cc([N+](=O)[O-])cn1)N1CCc2ccccc2C1
-0.44	i	Cc1cccc(Nc2ncnc3ccc(Br)cc23)c1
-0.07	i	CC1(C)CC(=O)N(c2ccc(C#N)cc2)C(=O)C1
0.6	i	Cc1cccc(CN(CC(=O)N/N=C/c2ccco2)S(=O)(=O)c2ccc(Cl)cc2)c1
2.5	i	O=C(CSCc1ccc(Cl)cc1Cl)Nc1ccc(O)cc1C(=O)O
-1.4	i	O=C(O)CN1C(=O)C(=O)N(Cc2ccc(Cl)c(Cl)c2)C1=O
1.5	i	CC(=O)N1CCC(C(=O)Nc2ccc3c(c2)CCC3)CC1
2.5	i	Cc1ccc2oc(=O)cc(CN3CC(C)OC(C)C3)c2c1 (stereo unspecified)
-1.1	i	CNC(=O)CN(c1cc(OCCOC)c(Cl)cc1Cl)S(=O)(=O)c1ccccc1
1.9	i	O=C(c1ccccn1)c1ccc2ccccc2n1
-0.64	i	Cc1ccc(-c2csc(NC(=O)CN3C(=O)CCC3=O)n2)cc1
0.68	i	O=C(Nc1ccc2c(c1)OCCO2)C1CCCN(S(=O)(=O)c2cnc[nH]2)C1 (stereo unspecified)
-1.9	i	Cc1nn(C)c(C(=O)NNC(=S)Nc2ccc(F)cc2)c1[N+](=O)[O-]
-2.1	i	Cc1cccc(-c2nc(C#N)c(NC3CCCCC3)o2)c1
-2.9	i	COc1ccc(NC(=O)COc2cccc3c2CCN(Cc2cccnc2)C3=O)c(OC)c1
-0.46	i	O=S(=O)(c1ccc(C2CCCCC2)cc1)N1CCN(c2ncccn2)CC1
0.36	i	Cc1cc(C(=S)N2CCOCC2)c(C)n1-c1ccc(F)cc1
-0.72	i	O=C(COC(=O)CNC(=O)c1ccc(Cl)cc1Cl)NC(=O)NC1CCCCC1
-0.34	i	O=S(=O)(c1ccccc1)N1CCN(CC(O)COc2ccc3c(c2)CCC3)CC1 (stereo unspecified)
-0.44	i	COc1ccccc1/C=C(/C(=O)OCC(=O)NCc1ccccc1)c1ccccc1
-1.1	i	CC(C)N=c1c([N+](=O)[O-])nn(C)n1O
1.3	i	CC1CCCC(NC(=O)CCCn2c(=S)[nH]c3ccccc3c2=O)C1C (stereo unspecified)
0.65	i	CCN(CC)S(=O)(=O)c1ccc2c(c1)nc(CCC(=O)OCC(=O)Nc1cc(Cl)cc(Cl)c1)n2C
0.01	i	CCOC(=O)c1c(=O)n(O)c2ccc(OC)cc2[n+]1[O-]
-3.1	i	COc1ccccc1/C=N/NC(=O)c1c(-c2ccccc2)noc1C
0.29	i	O=[N+]([O-])c1cccc(-c2cc3ccccc3[nH]2)c1
-0.02	i	Cc1ccn2cc(CSc3ccccc3N)nc2c1
-1.4	i	Cc1ccccc1C(=O)NCC(=O)Nc1ccc(C)c(S(=O)(=O)N2CCCCCC2)c1
1.7	i	CC(=O)c1cc(C#N)c(SCc2ccncc2)nc1C
0.37	i	Cc1ccc2nc(C)c(C(=O)N/N=C/c3cccs3)n2c1
0.41	i	FC(F)(F)C1=CC(c2ccc(Br)cc2)=NCCN1
0.31	i	C(=C\c1ccccc1)/CSc1nc2ncccc2[nH]1
-0.57	i	CC(C(=O)Nc1cccc([N+](=O)[O-])c1)[n+]1ccccc1 (stereo unspecified)
0.01	i	CCOc1cc(C)c(Cl)cc1S(=O)(=O)n1cnc2ccccc21
-1.2	i	COc1ccc(CCC(=O)OCC(=O)Nc2ccc3[nH]c(=O)[nH]c3c2)cc1
-1.2	i	CCOc1cc(NC(=S)NCCCOC)c(OCC)cc1NC(=O)c1ccco1
-0.17	i	C/C(=N\NC(=S)NCc1ccccc1)c1ccc2ccccc2c1
0.63	i	CC1=C(C(=O)OCc2ccccc2)C(c2ccccc2-c2ccccc2)NC(=O)N1CCCCCC(=O)O (stereo unspecified)
-0.41	i	Cc1ccc(S(=O)(=O)N2CCOCC2)cc1C(=O)OC(C)C(=O)c1ccccc1 (stereo unspecified)
0.31	i	O=C(CSc1nnc(CNC(=O)C23CC4CC(CC(C4)C2)C3)n1-c1ccccc1)Nc1ccccc1
0.29	i	COC(=O)c1ccc(NC(=O)C[n+]2ccccc2C)cc1
-1.3	i	COc1ccc2c(c1)C=CC1(O2)N(CCO)c2ccccc2C1(C)C (stereo unspecified)
-0.03	i	O=C(COC(=O)C1CC2CCCC(C1)C2=O)NNC(=O)c1ccccc1F (stereo unspecified)
0.92	i	c1ccc(Cn2c[n+](Cc3ccccc3)cn2)cc1
0.97	i	CCOC(=O)c1c(C)[nH]c(C(=O)N2CCCC(C(=O)c3cccc(OC)c3)C2)c1C (stereo unspecified)
-0.5	i	O=S(=O)(c1ccc2ccccc2c1)N1CCN(CCO)CC1
0.86	i	COc1ccc(OCCCC(=O)Nc2nccs2)cc1

The results go on.
KCNQ2 block baseline	KCNQ2 block	compound
4.2	i	O=C(COc1ccc2c(-c3ccccc3)cc(=O)oc2c1)NCCCn1ccnc1
1	i	CCCn1c(SCC(=O)N2c3ccccc3CCc3ccccc32)nc2c1c(=O)n(C)c(=O)n2C
-1.5	i	O=C(/C=C/Nc1ccc(F)c(Cl)c1)c1ccco1
1.9	i	O=C1c2ccc([N+](=O)[O-])cc2C(=O)N1Cc1cccnc1
-3.4	i	CC1(CCl)N([O-])C2=C(CCCC2)[N+]1=O (stereo unspecified)
1.3	i	COc1ccccc1OCc1nnc(SCC(=O)c2cc(Cl)ccc2OC)o1
-0.63	i	CCCCc1ccc(CC2S/C(=C(\C#N)C(=O)N3CCOCC3)N(c3ccccc3)C2=O)cc1 (stereo unspecified)
-0.2	i	O=C(CCNC(=O)c1ccc(Cl)cc1)Nc1ccccc1N1CCCCC1
0.5	i	CCCCCC1CC(CC(=O)NC(=S)Nc2ccccc2Cl)C(=O)O1 (stereo unspecified)
0.06	i	COc1ccc(NC(=O)N2CCC(c3nc4ccccc4[nH]3)CC2)cc1
2.2	i	Cc1cccc(Sc2ccc([N+](=O)[O-])cc2[N+](=O)[O-])n1
-0.17	i	CCOc1ccc(C(=O)NCCO)cc1
-0.14	i	Cc1nccn1CCc1nc(N)nc(N)n1
0.3	i	C#Cc1ccc([C@@H]2C=C(C(=O)Nc3ccccc3)O[C@H](OCC)[C@H]2CCCO)cc1
-0.44	i	CCOC(=O)C1CCCN(CC(O)COc2cccc(C)c2)C1 (stereo unspecified)
-1.3	i	COc1ccc(C2C(=O)N(C3CCCCC3)CC(=O)N2C2CCCC2)cc1 (stereo unspecified)
0.94	i	NS(=O)(=O)c1ccc(NC(=O)Nc2ccc(Cl)cc2)cc1
-3.5*	-6.1*	CC(C)(C)c1ccc(S(=O)(=O)/N=C2\C=C(NS(=O)(=O)c3ccccc3)C(=O)c3ccccc32)cc1
0.37	i	O=C(C(=O)N1CCN(c2ccc(F)cc2)CC1)c1cn(CC(=O)N2CCOCC2)c2ccccc12
1.2	i	O=C(Nc1ncn[nH]1)c1ccc(Cl)cc1Cl
-0.03	i	O=C(CSCc1nc2ccccc2[nH]1)Nc1ccc2ccccc2c1
-0.08	i	Cc1ccc(CNCC(=O)Nc2ccc(N3CCOCC3)cc2)cc1
0.18	i	CCCn1cnc2c(oc3ccccc32)c1=O
0.98	i	CC1=CC=CC2=NC(=O)CC(C)(C(=O)O)N12 (stereo unspecified)
0.73	i	O=C(OCC(=O)N1CCN(C(=O)c2ccco2)CC1)c1cn(-c2ccccc2)nc1-c1ccccc1
-1.2	i	CN(C)C(CNc1ccc([N+](=O)[O-])cc1C#N)c1ccccc1 (stereo unspecified)
-0.32	i	COc1ccc(C2=NS(=O)(=O)N(C)C(C(=O)Nc3ccc(OC)c(OC)c3)=C2)cc1
0.82	i	CCc1cccc(CC)c1NC(=S)NCc1ccc2[nH]c(C)cc2c1
2.3	i	O=C(/C=C/c1ccccc1Cl)c1ccc[nH]1
-0.29	i	COc1ccccc1N1CCN(C(=O)/C=C/c2ccccc2)CC1
0.02	i	Cc1ccc(CCNC(=O)C23CN(Cc4ccccc4)CC2C(c2cccc([N+](=O)[O-])c2)=NO3)cc1 (stereo unspecified)
1.7	i	Cn1c(CN2CCOCC2)nnc1SCc1ccccc1
0.37	i	CC(C)OCCCNC(=O)NC(=O)c1ccc(Cl)cc1
0.81	i	CC1CN(C(=O)N2CCCCC2)CCN1C(=O)N1CCCCC1 (stereo unspecified)
-0.29	i	N/C(=N\OC(=O)Cc1ccccc1[N+](=O)[O-])c1cccnc1
1.2	i	Cc1nn(CC(=O)Nc2ccccn2)c(C)c1[N+](=O)[O-]
-0.43	i	CCN(c1ccccc1)S(=O)(=O)c1cc(C(=O)Oc2ccc3c(C)cc(=O)oc3c2)ccc1C
-1.9	i	COc1cccc(/C=N/NC(N)=S)c1OS(=O)(=O)c1ccccc1
0.87	i	CC(C)N(C(=O)Cn1cc(SCC(=O)NCC2CCCO2)c2ccccc21)C(C)C (stereo unspecified)
0.08	i	Cc1ccc(NC(=O)[C@H](Cc2ccccc2)NC(=O)C2CCNCC2)cc1
0.64	i	Brc1ccc(-c2csc(N/N=C/c3ccc4c(c3)OCO4)n2)cc1
-0.54	i	O=C(O)C1CCCCC1C(=O)Nc1ccccc1F (stereo unspecified)
-1.1	i	O=C(NCc1ccccc1)C1=C[C@H](c2ccccc2)C[C@H](OCc2ccc(CO)cc2)O1
5.5	i	CCCCCCCCOc1ccc(C2OC34CCCCC3C(C#N)(C#N)C2(C#N)C(=N)O4)cc1 (stereo unspecified)
-2.1	i	CCN(CC(=O)Nc1cc(Cl)ccc1C)C(=O)CCS(=O)(=O)c1ccc(C)cc1
0.41	i	O=C(NCC1CCCO1)c1ccc2c(c1)N(Cc1ccc(F)cc1Cl)C(=O)CS2 (stereo unspecified)
2.5	i	Cc1ccnc(NC(=O)C2CCN(S(=O)(=O)c3cccc4nsnc34)CC2)c1
-0.58	i	COc1ccc(CN(C)CC2CCCN(CCc3ccc(Cl)cc3)C2)cc1OC (stereo unspecified)
0.53	i	CCN1C(=O)/C(=C2/C=CC=CN2C)OC1=S
0.81	i	CCOC(=O)c1cnc2ccc(C(=O)OC)cc2c1Nc1cccc(C(=O)O)c1

Next compounds
KCNQ2 block baseline	KCNQ2 block	compound
-0.01	i	CN(C(=O)CN1C(=O)CCSc2ccc(S(=O)(=O)N3CCCC3)cc21)c1ccccc1
-0.45	i	COc1ccc(OC)c(CN2CCC(C(=O)N3CCOCC3)CC2)c1
-0.11	i	CCC(C)c1ccc(NC(=S)NCc2cccs2)cc1 (stereo unspecified)
-0.61*	-8.6*	COc1cccc(/C=C2\SC(=S)N(N3CCOCC3)C2=O)c1OC
-0.47	i	Cc1ccc(C(=O)NC(=S)NNC(=O)CC#N)cc1
-0.4	i	O=C(NCc1ccco1)C1CC(=O)N(c2ccc(F)cc2)C1 (stereo unspecified)
0.04	i	CCn1c(SCC(=O)NC2CCCC2)nnc1-c1ccncc1
-0.28	i	C(=N\N1CCN(c2ccccn2)CC1)/c1cccc2ccccc12
1.3	i	O=C(O)C1CC=CCC1C(=O)Nc1cccc([N+](=O)[O-])c1 (stereo unspecified)
0.16	i	CCN1CCN(C(c2ccccc2)c2nnnn2Cc2ccc3c(c2)OCO3)CC1 (stereo unspecified)

4 entries already listed, arranged by their value in KCNQ2 block baseline, high to low:
smiles | KCNQ2 block baseline | KCNQ2 block
CCN1CCN(C(c2ccccc2)c2nnnn2Cc2ccc3c(c2)OCO3)CC1 (stereo unspecified) | 0.16 | i
CN(C(=O)CN1C(=O)CCSc2ccc(S(=O)(=O)N3CCCC3)cc21)c1ccccc1 | -0.01 | i
COc1ccc(OC)c(CN2CCC(C(=O)N3CCOCC3)CC2)c1 | -0.45 | i
Cc1ccc(C(=O)NC(=S)NNC(=O)CC#N)cc1 | -0.47 | i

An excerpt from the list above:
KCNQ2 block baseline	KCNQ2 block	compound
-0.01	i	CN(C(=O)CN1C(=O)CCSc2ccc(S(=O)(=O)N3CCCC3)cc21)c1ccccc1
-0.45	i	COc1ccc(OC)c(CN2CCC(C(=O)N3CCOCC3)CC2)c1
-0.11	i	CCC(C)c1ccc(NC(=S)NCc2cccs2)cc1 (stereo unspecified)
-0.61*	-8.6*	COc1cccc(/C=C2\SC(=S)N(N3CCOCC3)C2=O)c1OC
-0.47	i	Cc1ccc(C(=O)NC(=S)NNC(=O)CC#N)cc1

Going on with the list.
KCNQ2 block baseline	KCNQ2 block	compound
0.61	i	COCc1ccc(CN2CCCCC2C(=O)Nc2ccc(Oc3ccccc3)nc2)o1 (stereo unspecified)
0.37	i	Cc1ccc(OCCSCc2nc3ccccc3[nH]2)cc1
-1.1	i	O=C(c1cn(-c2ccccc2)nc1-c1cccc(Br)c1)N1CCOCC1
-0.02	i	Cc1c(Cl)cccc1NC(=O)C1COc2ccccc2O1 (stereo unspecified)
-0.62	i	Cc1nnc(SCCn2c(N(C)Cc3ccccc3)nc3c2c(=O)[nH]c(=O)n3C)s1
-0.01	i	Cc1cc(NC(=O)CCc2ccc(C)o2)no1
-0.29	i	O=C(NCc1ccccc1F)C1CCCN(C(=O)NC2CCCCC2)C1 (stereo unspecified)
0.62	i	Cc1cc(C)cc(N2CCCn3c2nc2c3c(=O)n(CC(=O)OCc3ccccc3)c(=O)n2C)c1

High-throughput results (PubChem)

An excerpt, so the mix of outcomes need not match the whole.
